Compound activity deposited in PubChem BioAssay by National Center for Advancing Translational Sciences (NCATS).
2A firefly = lowers the firefly signal of an FMDV 2A StopGo reporter; HEK cells with a luciferase reporter of 2A StopGo recoding; 120,000 tested, 0.23% active; Potency, µM (series often up to 57.5 µM), inactives show at the highest dose signal change, negative = less light; AID 1745856; active = well fitted falling curve with a large enough effect; inconclusive = small, poorly fitted or top-dose-only effect; inactive = no such curve, though single readings can be large or run the other way; further: nearly all actives have a fitted effect of over 60% in size; overnight with compound
2A Renilla = lowers the Renilla signal of an FMDV 2A StopGo reporter; HEK cells with a luciferase reporter of 2A StopGo recoding; Potency, µM (doses to about 57.5 µM), for the others: at the highest dose signal change, negative = less light; 120,000 tested, 0.32% active; AID 1745857; active means well fitted falling curve with a large enough effect; inconclusive means small, poorly fitted or top-dose-only effect; inactive means no such curve, though single readings can be large or run the other way; further: nearly all actives have a fitted effect of over 55% in size; overnight with compound
The depositor's hits bear a star; ? = inconclusive; & = joins results of further samples; [ ] = remark or other dose. On the % scale 0 is the no-effect control and ±100 the full control effect; potency means the concentration at half of the fitted maximal effect.

SMILES	2A firefly	2A Renilla
Cc1cc(C)c2oc(C(=O)N(Cc3ccc(F)cc3)C3CCS(=O)(=O)C3)cc(=O)c2c1 (stereo not drawn)	6%&-10%	18%&15%
NCCc1nnc(SCc2ccc(Cl)cc2)o1	-17%	-18%
CCC(=O)N1c2ccc(S(=O)(=O)NCc3cccc(OC)c3)cc2CC1C (stereo not drawn)	22%	63%[activator]
CC(C)CNc1nc(-c2ccc3c(c2)NC(=O)CO3)cs1	23%	82%[activator]
O=C(NCCC(c1ccccc1)c1ccccc1)c1ccc[n+]([O-])c1	22%	18%
CC(Cc1ccco1)NC(=O)c1cc2cc(S(=O)(=O)N(C)C)ccc2n1C (stereo not drawn)	-29%	-27%
CNC(=O)c1cccc(OCc2coc(-c3cccc(F)c3)n2)c1	-16%	13µM*
CC1(C)CC(=O)C2=C(C1)OC(N)=C(C#N)C2c1cccc(Oc2ccccc2)c1 (stereo not drawn)	8%	30%[activator]
COc1ccc(-c2nc3ccc(Cl)cn3c2Nc2ccc(C)cc2)cc1	30%[activator]	8%
CCC(Cn1nnc2ccccc2c1=O)NC(=O)Nc1ccc(C)cc1C (stereo not drawn)	-1%	-2%
Cc1ccc(Cn2c(CO)cnc2SCC(=O)Nc2cccc(F)c2)cc1	-7%	40%[activator]
O=C(CSc1nc2ccsc2c(=O)n1-c1ccc(Br)cc1)NCc1ccccc1	-12%	-3%
CCOc1ccc(OCCSc2nc3ccccc3n2CC(O)CO)cc1 (stereo not drawn)	31%[activator]	-5%
CCCCCn1c(=N)c(S(=O)(=O)c2ccc(C)cc2)cc2c(=O)n3cc(C)ccc3nc21	1%	-1%
CC(NC(=O)c1n[nH]c(=O)c2ccccc12)c1ccc(F)cc1 (stereo not drawn)	6%	-3%

Some of the entries so far, with each value named.
> CNC(=O)c1cccc(OCc2coc(-c3cccc(F)c3)n2)c1
  2A firefly: -16%; 2A Renilla: 13µM*
> Cc1ccc(Cn2c(CO)cnc2SCC(=O)Nc2cccc(F)c2)cc1
  2A firefly: -7%; 2A Renilla: 40%[activator]
> CC(Cc1ccco1)NC(=O)c1cc2cc(S(=O)(=O)N(C)C)ccc2n1C (stereo not drawn)
  2A firefly: -29%; 2A Renilla: -27%
> NCCc1nnc(SCc2ccc(Cl)cc2)o1
  2A firefly: -17%; 2A Renilla: -18%

Later entries
SMILES	2A firefly	2A Renilla
O=S(=O)(NCC(c1cccs1)S(=O)(=O)c1ccccc1)c1ccccc1 (stereo not drawn)	2%	304%[activator]
COC(CN)c1ccccc1 (stereo not drawn)	-5%	9%
NCCC/C(=N/O)c1cccs1	18%	1%[1.06 µM]
CCC(=O)Nc1ccc(-c2csc(NC)n2)cc1	315%[activator]	64%[activator]
CCC(NC(=O)c1ccc(N(C)C)cc1)c1ccc(C)cc1 (stereo not drawn)	38%[activator]	32%[activator]
CC(C)c1ccc(S(=O)(=O)NCCc2ncc3ccccn23)cc1	-5%	4%
Cc1cccc(Cc2c(C)nc3nc(SCc4ccccc4C)nn3c2C)c1	0%	-13%
CC(=O)Nc1ccc(S(=O)(=O)N2CCC(c3nnnn3-c3ccccc3)CC2)cc1	-18%	-11%
O=C(CSc1nc(C(F)(F)F)nc2ccccc12)NC1CCCC1	16%	-6%
Cc1ccccc1NC(=O)C1CCCN(c2cnc3ccccc3n2)C1 (stereo not drawn)	0%	45%[activator]
CCc1[nH]c(C(=O)N2CCCC2c2ccc3c(c2)OCCO3)c(C)c1C(=O)OC (stereo not drawn)	-1%	27%
Cc1ccc(-c2c(C)n3c4c(=O)n(C)c(=O)n(C)c4nc3n2CCCO)cc1	?	?
C=CCOc1cccc(C(c2c[nH]c3ccccc23)c2c[nH]c3ccccc23)c1	0%	0%[1.06 µM]
N#CC1=C(N)Oc2n[nH]c(-c3ccccc3)c2C12C(=O)N(Cc1ccc(F)cc1)c1ccccc12 (stereo not drawn)	0%	-21%
CC(C)(C)c1cc(Sc2c(Cl)c(Cl)nc(Cl)c2Cl)cc(C(C)(C)C)c1O	10%	4%

Of the compounds above, two have an aryl methoxy group.
SMILES	2A firefly	2A Renilla
CCC(=O)N1c2ccc(S(=O)(=O)NCc3cccc(OC)c3)cc2CC1C (stereo not drawn)	22%	63%[activator]
COc1ccc(-c2nc3ccc(Cl)cn3c2Nc2ccc(C)cc2)cc1	30%[activator]	8%

The results go on.
SMILES	2A firefly	2A Renilla
Cc1ccc(F)cc1NC(=O)c1ccn(Cn2nnc(-c3ccccc3)n2)n1	-4%	-9%
CCN(CC)S(=O)(=O)c1ccc(NC(=O)Cc2cn3ccsc3n2)cc1	8%	23%
COc1ccc(NC(=O)Cn2c(=O)n(CCC(=O)NCc3ccccc3OC)c(=O)c3ccccc32)cc1Cl	-17%	-17%
COc1cc(OC)c(NC(=O)CSCc2cc(=O)n3cccc(C)c3n2)cc1Cl	0%	-4%
O=C(Nc1ccc(F)c(F)c1F)c1n[nH]c(=O)c2ccccc12	28%	-8%
O=C(O)C/C(=C/c1cc(Br)cs1)c1nc2ccccc2o1	56%[activator]	-8%
CCCOc1ccc(C(=O)Nc2cccc3ncccc23)cc1	-12%	?
CCn1c(CSc2n[nH]c(-c3ccc(C)cc3)n2)nc2cc(S(=O)(=O)N(C)C)ccc21	26%	31%[activator]
Cc1c(C(=O)NCC(c2ccsc2)N(C)C)oc2ccc(Br)cc12 (stereo not drawn)	0%	-13%
COCC(=O)Nc1c(I)c(C(=O)NCC(O)CO)c(I)c(C(=O)N(C)CC(O)CO)c1I (stereo not drawn)	-3%	-15%
COc1ccc(OCC(=O)Nc2nn3cc(-c4ccccc4)nc3s2)cc1	161%[activator]	-1%
CCOC(=O)CCn1c(=O)c2cccn2c2cccnc21	0%	0%
CC(NC(=O)CCSc1ccc(Cl)cc1)c1ccccc1 (stereo not drawn)	51%[activator]	18%
CC(C)C(=O)Nc1ccc(F)c(F)c1F	-4%	-4%
CCc1ccc(-c2[nH]c3c(c2-c2sc(C)c(C(=O)OC)c2O)c(=O)[nH]c(=O)n3C)cc1	-10%	4%

Part of the list above, set out differently:
Molecule: CC(=O)Nc1ccc(S(=O)(=O)N2CCC(c3nnnn3-c3ccccc3)CC2)cc1
  2A firefly: -18%
  2A Renilla: -11%

Molecule: O=C(CSc1nc(C(F)(F)F)nc2ccccc12)NC1CCCC1
  2A firefly: 16%
  2A Renilla: -6%

Additional structures
SMILES	2A firefly	2A Renilla
Cc1cccc(N2CCN(C(=O)C3CCN(S(=O)(=O)c4ccc5c(c4)oc(=O)n5C)CC3)CC2)c1C	-16%	23%
Cc1ccc(C2NC(=O)c3c(sc4c3CCN(Cc3ccccc3)C4)N2)o1 (stereo not drawn)	4%	-2%
O=C(NCc1ccc(Cl)cc1)NCC1(c2ccccc2)CC1	0%	28%
O=C(Cc1cccc2ccccc12)NCc1ccccn1	48%[activator]	26%
COc1ccccc1CNC(=O)CCc1c(C)nn(-c2ccc(N3CCCC3)nn2)c1C	-2%	-4%
CCCNc1nc2ccccc2nc1C(=O)Nc1ccc(C)cc1	3%	-4%
Cn1c2ccc(Cl)cc2c2cc(Cl)ccc21	24%	1%
O=S(=O)(c1ccc2c(c1)CCN2)N1CCCC1	20%	9%
CCCCc1cc(=O)oc2cc(OCC(=O)c3ccc(OC)cc3)ccc12	3%	-6%
CCOC(=O)C1CCN(C(=O)CN2c3ccc(C(C)C)cc3-c3ccccc3S2(=O)=O)CC1	0%&39%	75%&79%[activator]
Oc1ccc(C2CC3CC2C2C=CCC32)cc1 (stereo not drawn)	111%[activator]	-3%[1.06 µM]
CC(C)Oc1cccc(NC(=O)C2CCN(S(=O)(=O)Cc3ccccc3)CC2)c1	-16%	-13%
Cc1ccccc1CNC(=O)c1cnc2ccccc2n1	38%[activator]	56%[activator]
CC(=O)c1cccc(Nc2nc(-c3cccc(C)c3)nc3ccccc23)c1	0%&102%	32%&2%[activator]
COc1cc(SC)ccc1C(=O)N1CCn2c3c(c4cc(C)ccc42)CCCC31 (stereo not drawn)	-20%	-10%
COc1cc(OC)cc(-c2nc(-c3ccc4c(c3)[nH]c(=O)n4C)no2)c1	4%	2%
CCOc1ccc(C2C(C#N)=C(SCC(=O)Nc3cccc(C)c3)NC3=C2C(=O)CCC3)cc1 (stereo not drawn)	-11%	?
O=C(CSc1nnc2[nH]c(=O)c(Cc3ccccc3)nn12)Nc1cccc(Cl)c1	0%	2%
c1ccc(CNC2CCCc3c2cnn3Cc2ccccc2)cc1 (stereo not drawn)	-4%	-14%
O=C(Nc1ccc(F)c(F)c1F)C1CCN(c2nc3ccccc3o2)CC1	?	?
COc1ccc(CNC(=O)CSc2nc(-c3ccc4c(c3)OCO4)ccc2C#N)cc1OC	5%	-4%
CN(C)c1cccc(C(=O)Nc2ccc(C#N)cc2)c1	0%	80%[activator]
CCc1cc(=O)oc2c(C)c(OC(C)C(=O)NCc3ccncc3)ccc12 (stereo not drawn)	22%	15%
COc1cc(O)cc2oc(-c3ccccc3)cc(=O)c12	0%	47%[activator]
CC(NC(=O)CSc1nnc(-c2ccncc2)n1-c1ccc(F)cc1)c1ccc2c(c1)OCO2 (stereo not drawn)	-15%	-26%
Cn1c(=O)c2c(nc(NCC(O)CO)n2Cc2c(F)cccc2Cl)n(C)c1=O (stereo not drawn)	-2%	-11%
COc1ccccc1CNC(=O)c1ccc(CS(=O)c2ccc(Br)cc2)o1 (stereo not drawn)	5%	23%
Cc1c(C#N)c(NC(=O)CSc2nnnn2-c2ccccc2)n(CC2CCCO2)c1C (stereo not drawn)	9%	15%
CCOc1ccc(C(=O)c2cn(Cc3ccc(OC)cc3)c3cc(OC)c(OC)cc3c2=O)cc1	-13%	13%
N#C/C(=C\c1ccc(-c2cc(Cl)ccc2Cl)o1)c1nc2ccccc2[nH]1	43%[activator]	5%
CC1=C(C(=O)OCc2ccc(C)cc2)C(c2ccccc2C(F)(F)F)CC(=O)N1 (stereo not drawn)	2%	-2%
CCN(CC)CCCNC(=O)c1nn(-c2ccc(OC)cc2)c(=O)c2c1c1ccccc1n2C	-7%	-1%
O=C(CCS(=O)(=O)c1ccccc1)N(Cc1cccnc1)c1nc2ccc(Cl)cc2s1	-20%	-12%
COc1cccc(N=C2NN=C(c3ccc4c(c3)CC(C)N4S(C)(=O)=O)CS2)c1 (stereo not drawn)	?	?
Cc1ccc(CNC(=O)COCc2cc(-c3ccc4c(c3)OCO4)on2)cc1	43%[activator]	27%
Cc1cc(C)cc(OC(=O)c2cc(-c3ccc4c(c3)OCCO4)on2)c1	-7%	-13%
COc1ccccc1OCCNc1ccc([N+](=O)[O-])c2cccnc12	19%	-6%
CCCCNc1nc2ccccc2nc1NS(=O)(=O)c1ccc(F)cc1	-8%	62%[activator]
Clc1cccc(C2=NC(c3cccs3)=Nc3ccc(Br)cc3N2)c1	58%[activator]	-5%
CCC(=O)N1c2ccccc2CC1C(=O)NCCCN1CCN(c2cccc(Cl)c2)CC1 (stereo not drawn)	-21%	-9%
CC(C)(C)OC(=O)N1CCC(c2c(C(=O)NC3CCN(Cc4ccccc4)CC3)cnn2-c2cccc(F)c2)CC1	-16%	-7%
O=C(CCn1cnc2onc(-c3ccc(F)cc3)c2c1=O)N1CCN(c2ccc(F)cc2)CC1	0%	2%
CC1CCC(NC(=O)COC(=O)c2cc3ccccc3[nH]2)CC1 (stereo not drawn)	0%	0%
CC1COCCN1Cc1coc(-c2cccc(F)c2)n1 (stereo not drawn)	67%[activator]	-7%
CCc1ccc(NC(=O)NCc2nc(-c3ccc(C)cc3)oc2C)cc1	39%[activator]	-3%
O=C(CCc1nc2ccccc2s1)NCc1ccccc1F	74%[activator]	30%[activator]
COc1cc(C(=O)NCC2(c3ccccc3)CC2)cc(Cl)c1OCC(N)=O	-9%	30%
Cc1ccc2c(CN3CCN(C(=O)c4ccco4)CC3)cc(=O)oc2c1C	11%	2%
CCCCCCCCOc1ccc(C(=O)c2ccccc2O)c(O)c1	25%	-12%
O=C(CC1N=C2c3ccccc3N=C(SCc3ccc(Cl)cc3)N2C1=O)NCCc1ccccc1 (stereo not drawn)	?	?
CCc1cc(=O)oc2cc(C)cc(OCC(=O)NCCCN(C)C)c12	-17%	-19%
CC(Oc1ccc2ccc(=O)oc2c1)C(=O)NC(=O)NC1CCCCC1 (stereo not drawn)	3%	13%
CN(C)S(=O)(=O)c1ccc(-c2nc(C#N)c(NCCN3CCOCC3)o2)cc1	-5%	7%
O=C(NCCc1c[nH]c2ccccc12)c1ccc(F)cc1F	31%[activator]	8%
Cc1cccc(OCC(=O)NC2(C#N)CCCCC2)c1C	-2%	75%[activator]
CCC(C)Cn1c(COc2ccc(OC)cc2)nc2ccccc21 (stereo not drawn)	2%	-5%
CCOC(=O)c1c(NC(=O)COc2ccccc2)sc(Cc2ccc3c(c2)OCO3)c1C	-2%	-4%
Cc1ncsc1C(=O)NCc1ccncc1	3%	4%
CCn1nnc2cc(C(=O)N(C)CC(=O)Nc3ccc(Br)c(C)c3)ccc21	21%	-2%
COc1cc(OC)c(NC(=O)c2noc3c2CSc2ccccc2-3)cc1Cl	-6%	-19%

Later entries.
SMILES	2A firefly	2A Renilla
O=C(Nc1ccc(Cl)c(-c2nc3ccccc3o2)c1)c1ccc(-c2cccc([N+](=O)[O-])c2)o1	19%	-7%
CCC(CC)C(=O)Nc1ccccc1C	22%	3%
CCN(Cc1ccccc1)C(=O)CCS(=O)(=O)c1ccc2c(c1)CCN2C(C)=O	24%	14%
CCN(C(=O)CCS(=O)(=O)c1cc2c(cc1C)NC(=O)CO2)c1cccc(C)c1	-5%	6%
Cc1sc2nc(CN3CCOCC3)nc(N(C)CC(=O)Nc3cccc(F)c3)c2c1C	-10%	2%

An unsorted share of the library (roughly 0.55% active in at least one column).
